Bioassay records as filed in PubChem BioAssay.
Env fusion inh: HIV envelope-mediated fusion inhibition; HeLa-JRFL Env/CEM21 cell fusion, luciferase; inhibition, % at 12.3 µM; hit rate 1.1% among 360,000; AID 651610;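 active = mean replicate inhibition score of at least 50 and every replicate individually at or above 50; inconclusive = only one of the two criteria met; inactive = mean below 50 and not all replicates reaching 50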;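 note: 0% = plate neutral controls and 100% = maraviroc near 300 nM; one replicate is shown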
UUG fidelity: yeast start codon fidelity modulation; activity score, % at 18.7 µM; AID 602363; hit rate 0.13% among 350,000; S. cerevisiae UUG-firefly luciferase reporter, luminescence/redox ratio;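 active = replicate mean at a twofold rise or more, about +100% in these data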;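 note: firefly luciferase made from a UUG start codon reports start codon fidelity; reporter light over untreated wells divided by growth signal over untreated wells; some hits fall short of that in this replicate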
MT1-MMP act inh: blocks activation of human MT1-MMP. P50281. GFP/RFP ratio change, % at 20 µM. AID 651647. HT1080 RFP-PRO-GFP cells, GFP/RFP ratio fluorescence, overnight; percent of plate control window, DMSO zero. hit rate 0.061% among 360,000;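 active = GFP/RFP ratio change of at least 30% with cell ATP level not reduced by more than half and red fluorescence within 50% of control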; note: strong numbers were not always called active
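Test system: HT1080 RFP-PRO-GFP cells; Benchmarks: DMSO and RFP-L50D-GFP cell wells; Timing: cells overnight before dosing, compound overnight, 37 °C, 5% CO2; Compound: one 20 µM compound dose with 1% DMSO; Read-out: GFP/RFP fluorescence ratio.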
CSC inhib: cancer stem cell inhibition | AID 2717 | hit rate 1.1% among 300,000 | cancer stem cell-like cells viability, luminescence | inhibition, % at 7.5 µM;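 active = mean at 75% or more and at least half the replicates too; inconclusive = mean and replicates disagree; tested in HMLE shEcad cells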;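 note: 0% = median of negative and 100% = median of positive control wells; the first replicate is given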
PABP FP inh: blocks human PABP binding to poly(A) RNA; P11940; fluorescence polarization; inhibition, % at 35 µM; hit rate 1% among 290,000; AID 2014;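 active = 50% or more with normal probe brightness, or confirmed in later tests; inconclusive = above 50% with abnormal brightness, or retests that disagree; inactive = below 50% or failed in later tests; about a fifth of its hits are not listed in these tables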;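 note: calls also rest on retests at 20 µM and on dose response follow-up; controls were probe without protein and protein plus probe with vehicle; some compounds called inactive have numbers as strong as hits; many hits fall short of the cut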
Target sequence (P11940 whole entry, looked up): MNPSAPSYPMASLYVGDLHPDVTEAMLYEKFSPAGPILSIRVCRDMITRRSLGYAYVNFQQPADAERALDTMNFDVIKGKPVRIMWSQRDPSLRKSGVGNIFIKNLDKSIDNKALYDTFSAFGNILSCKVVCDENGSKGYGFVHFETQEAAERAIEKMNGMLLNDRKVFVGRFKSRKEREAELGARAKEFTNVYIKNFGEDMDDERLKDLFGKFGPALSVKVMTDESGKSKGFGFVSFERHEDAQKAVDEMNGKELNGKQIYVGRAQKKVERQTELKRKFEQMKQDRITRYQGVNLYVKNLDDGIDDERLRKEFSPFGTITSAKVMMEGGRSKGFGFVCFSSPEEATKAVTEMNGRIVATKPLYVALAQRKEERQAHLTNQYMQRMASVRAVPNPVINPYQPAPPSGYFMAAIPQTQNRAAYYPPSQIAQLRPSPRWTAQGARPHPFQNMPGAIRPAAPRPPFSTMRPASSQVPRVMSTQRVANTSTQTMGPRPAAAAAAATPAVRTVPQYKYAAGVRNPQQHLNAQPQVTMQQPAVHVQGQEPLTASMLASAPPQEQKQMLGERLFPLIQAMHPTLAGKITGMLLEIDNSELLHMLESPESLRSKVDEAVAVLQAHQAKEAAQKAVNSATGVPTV
eIF4H inh: inhibitors of RNA binding by human eIF4H. Q15056. eIF4H fluorescence polarization binding assay. inhibition, % at 35 µM. hit rate 0.94% among 290,000. AID 2012;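 active = 50% or more with normal probe brightness, or confirmed in later tests; inconclusive = above 50% with abnormal brightness, or retests that disagree; inactive = below 50% or failed in later tests; about a fifth of its hits are not listed in these tables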;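 note: calls also rest on retests at 20 µM and on dose response follow-up; 0% = protein and probe with vehicle and 100% = probe without protein; strong numbers were not always called active; many hits fall short of the cut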
Rce1 inh: blocks yeast Ras-converting enzyme. yeast membranes, quenched prenylated peptide cleavage fluorescence. Q03530. hit rate 0.27% among 290,000. AID 2563. calls only;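 active = fall in fluorescence gain of 50% or more versus controls, with final raw signal at or below 3038400; inconclusive = same 50% fall but final raw signal above 3038400; inactive = fall in fluorescence gain under 50%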;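 note: plate controls were neutral control wells for no effect and wells lacking membranes for full effect; tested at 10 µM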
Target sequence (Q03530 whole entry, looked up): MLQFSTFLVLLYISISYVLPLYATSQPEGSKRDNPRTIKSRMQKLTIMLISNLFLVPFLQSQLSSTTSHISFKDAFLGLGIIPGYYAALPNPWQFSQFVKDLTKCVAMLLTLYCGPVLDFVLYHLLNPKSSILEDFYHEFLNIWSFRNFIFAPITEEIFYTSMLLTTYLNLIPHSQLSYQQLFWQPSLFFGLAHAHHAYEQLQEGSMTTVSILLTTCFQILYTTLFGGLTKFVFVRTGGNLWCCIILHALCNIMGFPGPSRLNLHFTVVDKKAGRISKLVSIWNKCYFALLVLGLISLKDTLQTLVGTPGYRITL
eIF4H inh retest: also measured in eIF4H inh; calls as there; inhibition, %; compound at 20 µM; confirmation average;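 mean of two retest wells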
PABP FP inh retest: recorded beside PABP FP inh, whose call it bears; inhibition, %; compound at 20 µM; confirmation repeats;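 mean of two retest wells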
MT1-MMP act inh RFP: further read-out of MT1-MMP act inh, marked with its call; RFP signal change, %; measured here: RFP expression control read;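 0 = vehicle wells; hits needed this value within 50% of zero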
The depositor's hits bear a star; i = inactive; ? = inconclusive; . = not tested or not shown. A portion of the library; rates above refer to the full screens.

SMILES | Env fusion inh | UUG fidelity | MT1-MMP act inh | MT1-MMP act inh RFP | CSC inhib | PABP FP inh | eIF4H inh | Rce1 inh | others
COC(=O)CC1c2ccccc2S(=O)(=O)N1Cc1ccccc1 (centres undefined) | 0.5 | -10.5 | 2.7 | 1.7 | -18.6 | 11.9 | -9.7 | i
Cc1ccc(N2C(=O)CC(N(CCc3ccccc3)C(=S)Nc3ccc(N(C)C)cc3)C2=O)cc1 (centres undefined) | -33.8 | -7.1 | -5.7 | -25.7 | 94.5* | -0.6 | -5.1 | i
Cn1c(=S)n(/N=C/c2ccc3c(c2)OCO3)c2ccccc21 | . | 0.4 | -0.4 | 2.6 | -8.5 | -3.4 | 7.0 | .
O=C(O)c1cccc(S(=O)(=O)Nc2ccc3[nH]c(=O)[nH]c3c2)c1 | -0.7 | 8.3 | -1.3 | 4.4 | 4.7 | 11.5 | 19.0 | i
CCN1C(=O)[C@H]2[C@@H](c3ccc(C)cc3)N3C(=O)N(c4ccccc4)C(=O)[C@@]3(Cc3ccc(Cl)cc3)[C@H]2C1=O | . | -26.6 | 3.7 | -6.3 | 12.7 | 0.9 | 2.2 | i
COc1cccc(-c2cc(NC=O)c3ncc(-c4cc(OC)c(OC)c(OC)c4)n3c2)c1 | -269.0 | -14.8 | 9.9 | -7.0 | . | . | . | .
CCN1C(=O)N[C@@H](CCc2ccccc2)C(C(C)=O)=C1C | -4.8 | 6.1 | -1.2 | 3.0 | -10.5 | . | . | i
Fc1cccc(CN2CCN(c3nc4nonc4nc3NC3CC3)CC2)c1 | -47.2 | . | -5.5 | 3.0 | -6.8 | 77.2* | 89.7* | i | eIF4H inh retest=71.2*;PABP FP inh retest=54.4*
N#CC1(NC(=O)COC(=O)CN2C(=O)c3ccccc3C2=O)CCCCC1 | . | -18.5 | -0.8 | 3.3 | 1.1 | . | . | i
COc1ccc(-n2nc3c(c2NC(=O)C(C)Oc2ccccc2)CS(=O)(=O)C3)cc1 (centres undefined) | -12.0 | -15.0 | -0.1 | 0.7 | -11.7 | -8.5 | -11.2 | i
COc1ccccc1C(=O)OCCN1CCOCC1 | . | . | 1.7 | 5.3 | -16.6 | -3.7 | -0.6 | i
Nc1ncnc2c1ncn2[C@@H]1O[C@H](COP(=O)(O)OP(=O)(O)OP(=O)(O)O)[C@@H](O)[C@H]1O | 9.1 | -5.9 | 4.8 | 2.5 | -0.1 | . | . | .
O=C(O)CC(c1ccccc1F)N1Cc2ccccc2C1=O (centres undefined) | 19.1 | -2.4 | -2.3 | 3.8 | -15.2 | -4.2 | 0.1 | i
COc1ccc(C(CNC(=O)C(CCSC)NC(=O)c2ccccc2Cl)N2CCCC2)cc1 (centres undefined) | -6.2 | 5.8 | -4.1 | 2.7 | . | . | . | .
O=C(Nc1c2c(nn1-c1ccc(F)cc1)CS(=O)(=O)C2)c1ccc(S(=O)(=O)N2CCOCC2)cc1 | 0.9 | . | -2.8 | -1.7 | -6.1 | -2.2 | -1.2 | .
CC(=O)Nc1ccc(C(=O)c2ccccc2)cc1 | . | -5.0 | -1.0 | 0.8 | -13.4 | -6.5 | -3.4 | i
O=C(NNC1=NCCCCC1)c1ccccc1 | -18.6 | -8.5 | -5.8 | 3.7 | -11.1 | 1.1 | -4.3 | i
COc1ccc(OCC(=O)NNC(=O)c2cc3ccccc3o2)cc1 | . | 6.1 | 0.7 | 3.0 | -25.6 | -1.0 | -5.6 | i
O=C1Nc2cc(C(=O)N3CCOCC3)ccc2SC1N1CCOCC1 (centres undefined) | -1.8 | . | -6.2 | -0.5 | -2.9 | 5.6 | 8.2 | i
CCCCSC1=C(C#N)C(c2ccccc2C)CC(=O)N1 (centres undefined) | -14.5 | -15.5 | 1.3 | -0.6 | 10.0 | -4.4 | -4.3 | i
CCOc1ccccc1NC(=O)C1CCN(C(=O)C2CC(=O)N(c3ccc(C)cc3)C2)CC1 (centres undefined) | -0.5 | -22.1 | -1.1 | -3.0 | -18.0 | 12.0 | 2.9 | i
Oc1ccc(C2C(c3ccccc3)=NN=C(c3ccc(Cl)cc3)N2O)c(O)c1 (centres undefined) | 18.9 | . | 9.4 | 2.8 | 17.2 | 4.6 | 3.7 | i
Cc1c(N(C(=O)Cc2cccs2)C2(C(=O)NC3CCCC3)CCCCC2)c(=O)n(-c2ccccc2)n1C | -11.1 | 1.8 | -1.0 | -0.8 | -3.1 | -9.1 | 9.5 | i
CNC(=O)CCn1nc(-c2ccccc2)c2ccccc2c1=O | 7.6 | -9.7 | 0.9 | -0.4 | -16.1 | 4.2 | -0.5 | i
O=C(Nc1ccc(O)c(-c2nc3ccccc3o2)c1)C1(c2ccc(Br)cc2)CCCC1 | 6.9 | . | 1.1 | -1.8 | 84.3* | 7.4 | 4.3 | i
CC(=O)OCC(=O)NCC(=O)c1c[nH]c2ccccc12 | 10.8 | -14.4 | 3.3 | 5.6 | -11.0 | -3.5 | 0.1 | i
Cc1ccc(NC(=O)CN(C)C(=O)CSc2nncn2C)cc1 | . | -11.4 | 1.1 | 2.8 | 0.6 | 16.6 | 5.6 | i
Cc1c(Cc2ccccc2)sc(N)c1C(N)=O | . | . | . | . | -0.5 | 25.8 | 13.2 | i
C=CC(O)(C#CCN(CC)CC)c1ccccc1 (centres undefined) | i | . | -1.6 | 0.3 | -0.2 | 2.5 | 2.1 | i
CC(=O)NC(Cc1ccc(F)c(F)c1)C(=O)NC1CCN(c2nnnn2-c2ccccc2)CC1 (centres undefined) | -0.8 | . | 2.6 | 0.0 | -7.0 | -3.4 | -7.1 | i
CC(C)CNC(=O)CSc1nc2nn(-c3ccccc3)c(=O)c-2c2n1CCCCC2 | 4.3 | . | -1.8 | -4.3 | -18.2 | 4.7 | -2.1 | i
O=C(NCC1CCCO1)c1cccc(C(=O)NCC2CCCO2)c1 (centres undefined) | 4.0 | -18.2 | -0.4 | -3.5 | -11.4 | 13.6 | 16.5 | i
O=C(O)c1ccccc1C(=O)c1ccc2c(c1)CCC2 | -26.3 | -10.4 | 5.9 | 5.5 | -10.6 | 1.0 | 5.8 | i
COc1cc(C(CC(=O)Nc2ccc(Cl)cn2)N2Cc3ccccc3C2=O)cc(OC)c1OC (centres undefined) | 1.3 | -3.5 | -0.5 | -0.4 | -10.9 | -4.0 | -3.1 | i
C=CCC1NS(=O)(=O)OC(COC)C1C (centres undefined) | -8.3 | -12.0 | -1.5 | 5.7 | -4.2 | 8.6 | 0.2 | i
Cc1cc2c(c(SCC(=O)NCCc3ccccc3)n1)C(=O)OC2 | -30.9 | -9.4 | 3.0 | 6.7 | -6.5 | 9.9 | 8.3 | i
CC(C)CCNCC(O)CON=C1c2ccccc2-c2ccccc21 (centres undefined) | 15.6 | . | -2.5 | -5.1 | 51.7 | -12.4 | -12.7 | i
Cc1ccsc1/C=N/NC(=O)CNC(=O)c1cccc([N+](=O)[O-])c1C | -23.5 | -8.5 | 4.6 | 3.3 | -4.0 | 6.9 | 5.7 | i
Cc1c(Cl)cccc1NC(=O)Cn1cccc1 | -34.9 | . | 0.3 | -1.4 | -3.5 | 1.2 | 8.3 | i
Cc1cc(N2CCOCC2)nc2cc(O)ccc12 | -46.8 | -42.3 | 1.3 | 4.2 | 8.6 | 0.6 | 3.3 | i
CCc1ccc(NS(=O)(=O)c2ccc3[nH]c(=O)[nH]c3c2)cc1 | 12.6 | -18.5 | -2.3 | -1.3 | -2.0 | 5.0 | -0.8 | i
C=CCn1c(-c2ccc(N)cc2)nc2ccccc21 | -21.8 | -21.7 | -3.4 | 1.7 | -14.5 | -5.2 | -4.3 | ?
O=C(CCCN1C(=O)c2cccnc2C1=O)N1CC(=O)N(CCc2ccccc2)C(=O)C1 | -22.5 | 0.7 | 0.4 | 7.5 | . | -3.9 | 0.6 | .
CC(OC(=O)c1cc(=O)c2cc(Cl)ccc2o1)C(=O)N1CCCC1 (centres undefined) | -2.1 | -7.5 | -1.0 | 3.0 | . | . | . | .
CN1C[C@@H]2C(c3ccc(Cl)nc3)C3(c4cccnc4)CC2(C3)[C@H]1c1ccccc1 (some centres undefined) | -30.7 | -6.9 | -3.5 | -1.5 | 1.0 | -0.8 | -1.8 | i
COc1ccc(-n2ncc3c(N4CCCCC4)ncnc32)cc1 | . | -91.8 | 2.0 | -3.4 | -0.5 | -3.7 | 9.6 | i
O=C(c1ccco1)N1CCN(C(=O)c2ccc(CS(=O)c3ccc(F)cc3)o2)CC1 (centres undefined) | -7.3 | -8.1 | -0.9 | 0.0 | -5.9 | 47.2 | 2.1 | i
COc1ccc(OC)c(/C=C/C(=O)N(C)CC(=O)Nc2ccc(N3CCOCC3)cc2)c1 | . | -31.8 | 2.9 | -0.7 | -9.4 | . | . | .
COC(=O)C(Cc1ccccc1)NC(=S)NC(=O)c1ccccc1 (centres undefined) | -6.3 | -18.2 | -0.9 | -2.6 | -6.8 | 1.2 | -5.7 | i
O=C(CN1CCN(Cc2ccc(Cl)cc2)C1=O)NCCCN1CCOCC1 | 4.9 | 3.1 | -1.3 | 1.5 | -14.9 | -2.8 | -3.3 | i
CN(C)/C(=N\OC(=O)c1ccccc1)c1nonc1N | -13.1 | . | -4.2 | 0.2 | -15.3 | -3.6 | -3.5 | i
O=C(Cc1ccc(Cl)cc1)Nc1ccc(S(=O)(=O)Nc2ncccn2)cc1 | 2.6 | -18.3 | 3.9 | 5.2 | -2.4 | -6.4 | 5.3 | i
CN(C)n1cnc2ccsc2c1=O | -3.9 | . | 1.0 | 4.7 | -12.8 | -3.0 | -0.4 | i
CCOc1ccc(S(=O)(=O)Nc2ccc(C(=O)NNC(=O)c3ccncc3)cc2)cc1 | -6.5 | . | 4.3 | 2.4 | 9.0 | . | . | i
Cc1nc(SCc2ccccc2C)n[nH]1 | -61.4 | -4.2 | 13.7 | 10.0 | 1.0 | -8.0 | 2.4 | i
COCCNC(=O)CCCn1c(=O)c2ccccc2n(CC(=O)NCCC2=CCCCC2)c1=O | . | -3.7 | 2.7 | 4.7 | . | 2.3 | -5.0 | i
COc1ccc(Cl)cc1S(=O)(=O)n1nnc2ccccc21 | -2.7 | -13.4 | -2.1 | -1.2 | -3.4 | 6.8 | -6.2 | i
O=C(CSC1=Nc2ccccc2C2=NC(Cc3c[nH]c4ccccc34)C(=O)N12)NC1CCCCC1 (centres undefined) | 113.8* | -7.3 | -6.3 | 3.1 | -9.8 | 1.7 | 2.2 | i
Cc1nc(C(=O)NCCC(C)C)sc1C1(C)CC(c2ccccc2)=NO1 (centres undefined) | 46.7 | -2.3 | -1.2 | -1.9 | -1.2 | 6.1 | 6.2 | i
CC(=O)Nc1cccc(-c2ccnc3c2CC(C(=O)Nc2ccc4c(c2)OCO4)O3)c1 (centres undefined) | -3.7 | 5.0 | 11.9 | -7.9 | . | . | . | .

Fetched by structure from above, 2 records:
SMILES | Env fusion inh | UUG fidelity | MT1-MMP act inh | MT1-MMP act inh RFP | CSC inhib | PABP FP inh | eIF4H inh | Rce1 inh | others
Cc1nc(C(=O)NCCC(C)C)sc1C1(C)CC(c2ccccc2)=NO1 (centres undefined) | 46.7 | -2.3 | -1.2 | -1.9 | -1.2 | 6.1 | 6.2 | i
CN(C)/C(=N\OC(=O)c1ccccc1)c1nonc1N | -13.1 | . | -4.2 | 0.2 | -15.3 | -3.6 | -3.5 | i
